From PubChem
RecA splice inh = Mtb RecA intein splicing inhibitors, primary screen, biochemical, fluorescence, HTS; Protein RecA (Mycobacterium tuberculosis (strain ATCC 25618 / H37Rv)), P9WHJ3; cell-free RecA intein splicing; inhibition, %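 (about 9 µM by stock and volumes)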; hit rate 0.75% among 290,000; in the data active means inhibition above about 30%; inconclusive means no clear call, values can overlap the other calls;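 further: 0% = vehicle wells and 100% = reference inhibitor control wells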
Target sequence (P9WHJ3 whole entry, looked up, canonical isoform): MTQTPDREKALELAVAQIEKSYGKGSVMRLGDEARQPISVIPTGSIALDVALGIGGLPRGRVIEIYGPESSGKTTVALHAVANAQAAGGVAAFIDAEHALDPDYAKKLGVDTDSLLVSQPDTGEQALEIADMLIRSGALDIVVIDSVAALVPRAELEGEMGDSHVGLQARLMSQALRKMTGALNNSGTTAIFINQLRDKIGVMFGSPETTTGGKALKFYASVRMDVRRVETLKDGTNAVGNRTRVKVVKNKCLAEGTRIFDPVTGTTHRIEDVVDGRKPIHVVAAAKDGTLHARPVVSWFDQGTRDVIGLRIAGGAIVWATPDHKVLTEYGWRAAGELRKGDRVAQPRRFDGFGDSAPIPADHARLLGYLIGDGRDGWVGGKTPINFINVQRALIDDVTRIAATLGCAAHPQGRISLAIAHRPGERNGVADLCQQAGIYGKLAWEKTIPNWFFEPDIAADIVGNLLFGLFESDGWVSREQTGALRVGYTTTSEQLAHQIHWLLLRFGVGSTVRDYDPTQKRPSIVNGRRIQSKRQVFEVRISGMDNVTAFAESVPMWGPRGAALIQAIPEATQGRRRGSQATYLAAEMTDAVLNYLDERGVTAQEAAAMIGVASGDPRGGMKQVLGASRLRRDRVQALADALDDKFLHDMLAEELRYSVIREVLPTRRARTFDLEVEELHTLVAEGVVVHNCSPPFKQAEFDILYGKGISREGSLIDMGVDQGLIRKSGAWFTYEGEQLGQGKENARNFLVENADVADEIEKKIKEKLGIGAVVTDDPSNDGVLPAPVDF
Mtb growth = M. tuberculosis H37Rv growth inhibitors, H37Rv strain (AID 1626) | inhibition, % at 10 µM, or IC50 in µM where a hit was titrated | M. tuberculosis H37Rv growth inhibition; higher % means a stronger effect | hit rate 0.95% among 220,000;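 active means confirmed in a dose series; inconclusive means inhibition above 80% but not taken into the dose series; inactive means below 80% or under 30% at every dose of the series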;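 further: bacteria incubated seven days before Alamar blue readout; 0% = bacteria only wells and 100% = bacteria with antibiotic wells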
Arbovirus inh = antivirals against arbovirus infection, primary screen, cell-based, full library, 10K replicate subset; arbovirus infection cell-based antiviral screen; inhibition, % at 10 µM; AID 1251, 2008; hit rate 0.37% among 200,000;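 active means inhibition from about 30%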;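 further: bluetongue infection of BSR cells; cell survival read as ATP light after 72 h; 0% = infected wells without compound and 100% = uninfected wells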
Mtb bLac sens = beta-lactam sensitization of Mtb H37Rv, H37Rv; AID 434955, 2010; hit rate 0.27% among 330,000; M. tuberculosis H37Rv growth with meropenem, percent inhibition; hits of this screen are not shown here; inhibition, % at 25 µM;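 active means about 74% or more and at least 40 points above the plate without the antibiotic, then above 30% in a dose series; inconclusive means first-round hits that could not be retested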;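 further: growth measured after seven days incubation then overnight dye step; 0% = bacteria only wells and 100% = bacteria with antibiotic; twin plates without the antibiotic show which effects depend on it; some results filed as inactive read as strong as hits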
YopH inh = YopH tyrosine phosphatase inhibitors, primary screen, biochemical, fluorescence Ex485/Em525 | YopH tyrosine phosphatase [Yersinia enterocolitica] | inhibition, %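 (about 10 µM by stock and volumes)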 | hit rate 0.16% among 140,000;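 active means inhibition of 50% or more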;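 further: controls were vehicle for no effect and minimum signal wells for full effect; inactives centre near -20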
Arbovirus inh repeat = also measured in Arbovirus inh; calls as there; inhibition, %; measured here: 10K subset replicate screen; many hits read low in the repeat;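 first of two repeat runs on a subset; 0% = infected and 100% = uninfected wells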
* = called active by the depositor; ? = inconclusive; / = not tested or not shown.

SMILES | RecA splice inh | Mtb growth | Arbovirus inh | Mtb bLac sens | YopH inh | others
COC(=O)C1=NN(C(=O)c2ccc(Cl)cc2)C(O)(c2ccccc2)C1 (centres undefined) | 15 | 1% | 13 | 0 | -45
CCOc1ccc(N=Cc2c(O)cc(C)oc2=O)cc1 | -2.0 | ? | -5 | -2 | -15 | Arbovirus inh repeat=-8
Cn1c(SCC(=O)N2CCCCC2)nc2c(c1=O)SCC2 | 1.0 | / | / | -4 | /
COc1cc(C(=O)NCC(=O)n2nc(C)cc2C)cc(OC)c1OC | -1.7 | -11% | 0 | -10 | -52
CCC(C)C1C(C#N)=C(N)Oc2n[nH]c(-c3ccccc3)c21 (centres undefined) | 4.8 | -4% | -9 | -4 | -55 | Arbovirus inh repeat=-5
CSc1ncccc1C(=O)OCC(=O)N(C)c1c(N)n(Cc2ccccc2)c(=O)[nH]c1=O | -3.0 | / | / | -15 | /
COc1ccc2[nH]c(=O)c(CN(Cc3ccco3)C(=O)c3ccccc3)cc2c1 | -1.7 | -3% | 1 | -9 | -39
O=C(NCCc1ccccc1)c1ccccc1NC(=O)C1CC=CCC1C(=O)O (centres undefined) | -2.3 | 6% | 8 | 8 | -27
CCC(=O)Oc1ccc2c(=O)c(-c3ccc4ccccc4n3)c(CC)oc2c1C | -3.8 | 12% | 9 | 5 | -22
N#Cc1cc(-c2ccccc2)cnc1Sc1ccc(Cl)cc1 | 1.7 | -4% | 0 | 9 | -37
Cc1csc2ncc(C(=O)N(Cc3ccccc3)c3ccccn3)c(=O)n12 | 0.5 | 19% | 5 | -1 | -28
O=C(C1CCC1)N1CCc2cc(S(=O)(=O)N3CCN(c4ccccn4)CC3)ccc21 | -1.1 | -4% | 10 | -9 | -14
COc1ccc(OCCCC(=O)Nc2cccc([N+](=O)[O-])c2C)cc1 | -6.1 | 12% | 1 | -1 | -36
CCOC(=O)c1cnc(-c2ccccc2)nc1-c1ccccc1 | 11 | 9% | -4 | 3 | /
Nc1cc(C(=O)OCC(=O)NCCCc2ccccc2)ccc1Cl | 1.7 | / | / | 4 | /
COc1ccccc1NC(=S)N(CCc1c(C)[nH]c2ccccc12)Cc1cccs1 | 5.1 | 14% | 10 | 15 | -35
COc1ccc(-c2cc(C#N)nc(Cl)n2)cc1 | 40* | 4% | / | 3 | /
Cc1ccc(S(=O)(=O)/N=C2\C=C(Nc3cccc(C(=O)O)c3)C(=O)c3ccccc32)c(C)c1 | 82* | / | / | 12 | /
CC12CCC(=O)N1C(C(=O)Nc1nnc(SCc3ccc(F)cc3)s1)CS2 (centres undefined) | 2.0 | / | / | -14 | /
CCOC(=O)c1sc(N/N=C/c2ccc(N(C)C)cc2)nc1C | -3.1 | / | / | 13 | /
CCN(CC(=O)Nc1ccccc1OC)C(=O)c1cc(S(=O)(=O)N2CCCCCC2)ccc1OC | 1.1 | / | / | 88 | /
CCN(c1ccccc1)S(=O)(=O)c1cccc(C(=O)NCc2ccccn2)c1 | 0.1 | / | / | -3 | /
CCOc1ccccc1C(=O)NCC(=O)NC(C)c1ccc(-n2ccnc2)cc1 (centres undefined) | 0.0 | / | / | 0 | /
Cc1c(C(=O)NC(C)c2ccccc2)c(-c2ccccc2)nn1-c1ccccc1 (centres undefined) | / | 9% | -10 | -1 | -38
O=[N+]([O-])c1ccc(N/N=C2/CCCCC2c2ccccn2)c([N+](=O)[O-])c1 (centres undefined) | 3.1 | 4% | -7 | 4 | -15

Arranged by molecular weight (falling): 3 of the compounds above.
SMILES | RecA splice inh | Mtb growth | Arbovirus inh | Mtb bLac sens | YopH inh | others
CCN(CC(=O)Nc1ccccc1OC)C(=O)c1cc(S(=O)(=O)N2CCCCCC2)ccc1OC | 1.1 | / | / | 88 | /
Cc1ccc(S(=O)(=O)/N=C2\C=C(Nc3cccc(C(=O)O)c3)C(=O)c3ccccc32)c(C)c1 | 82* | / | / | 12 | /
Cc1c(C(=O)NC(C)c2ccccc2)c(-c2ccccc2)nn1-c1ccccc1 (centres undefined) | / | 9% | -10 | -1 | -38

Continued.
SMILES | RecA splice inh | Mtb growth | Arbovirus inh | Mtb bLac sens | YopH inh | others
CCc1cc(SC#N)cc(C)c1N | -3.1 | -10% | -8 | -2 | /
COCCNC(=O)CSc1ncnc2sccc12 | -3.6 | 14% | 0 | 2 | -32
CCN(CC(=O)Nc1ccc(Cl)c(S(=O)(=O)N(C)C)c1)CC(=O)NC(C)C | 2.9 | -2% | 21 | -4 | /
O=C(O)COc1ccccc1/C=C1\SC(=Nc2ccc(F)cc2)N(c2ccc(F)cc2)C1=O | 12 | 3% | -5 | 2 | /
CCOc1ccc(OCC)c(NC(=O)C2CCCN(S(=O)(=O)c3c(C)noc3C)C2)c1 (centres undefined) | 3.0 | 11% | -2 | -6 | -38
COCCCNC(=O)C1CCCN(S(C)(=O)=O)C1 (centres undefined) | 3.0 | -4% | 8 | -5 | -28
O=C(Cc1ccccc1)NC(=S)Nc1ccc(OC(F)F)cc1 | 0.5 | / | / | 94 | /
CCOC(=O)C1(Cc2ccc(OC)cc2)CCN(C(=O)c2csc(C)n2)CC1 | 3.4 | 7% | 3 | -1 | /
Cc1ccc2c(c1)cc(C(=O)N1CCN(c3ccccn3)CC1)n2C | 0.9 | / | / | -6 | /
Nc1nc(SCC(=O)Nc2ccccc2Oc2ccccc2)n[nH]1 | -1.1 | 2% | 0 | -2 | -32
CCn1nc(C)c(Oc2ccccc2O)c1C | -3.0 | -1% | -2 | -9 | -5
Cc1cc(C)n2c(SCC(=O)Nc3ccc(Cl)cn3)nnc2n1 | / | -7% | 12 | / | -42
Cc1ccc(Cn2nnc3c(=O)[nH]c(C4CCN(S(=O)(=O)c5ccc(S(=O)(=O)NC6CC6)cc5)CC4)nc32)cc1 | 2.9 | / | / | -5 | /
COc1cccc(-c2nnc(SCCOc3ccc4c(C)cc(=O)oc4c3)o2)c1 | -0.9 | 5% | -4 | -7 | 11
CCN(CC)c1ccc(N=Cc2c(O)[nH]c(=O)[nH]c2=O)cc1 | -5.3 | / | / | -10 | /
CCOc1ccc2nc(Cl)c(CN(C(C)=O)C3CCCCC3)cc2c1 | 4.0 | -10% | 5 | -3 | /
Cc1ccc(-c2cc(-c3ccccc3)cc(-c3ccccc3)[n+]2-c2ccccc2)cc1 | 8.9 | / | / | 100 | /
CS(=O)(=O)N1CCN(C(=O)NC23CC4CC(CC(C4)C2)C3)CC1 | -5.7 | -2% | 4 | -7 | -27
Cc1ccc(C)c(S(=O)(=O)N2CCCOC2CNC(=O)C(=O)NCCc2ccco2)c1 (centres undefined) | 1.5 | / | / | -1 | /
CCCN(Cc1cc2cccc(C)c2[nH]c1=O)C(=O)c1cccc(OC)c1 | 0.7 | -4% | / | -2 | -13
O=S(=O)(Nc1cccc(-c2nnco2)c1)c1ccc(Cl)cc1 | / | -3% | / | 10 | /
CCCCc1c(O)nc(SCC(=O)O)[nH]c1=O | 1.1 | -2% | -2 | 14 | /
COc1ccccc1/C=C/C=N/N1CCN(Cc2ccc(Cl)cc2)CC1 | 2.9 | -2% | -4 | 57 | -31
COc1ccc(N(C(=O)CNC(=O)c2ccco2)C(C(=O)NCC2CCCO2)c2ccccc2)cc1Cl (centres undefined) | 0.4 | / | / | 32 | /
Cc1cc(C(=O)N/N=C/c2c3ccccc3cc3ccccc23)n[nH]1 | -2.2 | / | / | -9 | /

Next part (two carried over from the part before).
SMILES | RecA splice inh | Mtb growth | Arbovirus inh | Mtb bLac sens | YopH inh | others
COc1ccc(N(C(=O)CNC(=O)c2ccco2)C(C(=O)NCC2CCCO2)c2ccccc2)cc1Cl (centres undefined) | 0.4 | / | / | 32 | /
Cc1cc(C(=O)N/N=C/c2c3ccccc3cc3ccccc23)n[nH]1 | -2.2 | / | / | -9 | /
O=C(c1ccccc1NS(=O)(=O)c1cccc([N+](=O)[O-])c1)N1CCOCC1 | -1.1 | -2% | 2 | -2 | -17
O=[N+]([O-])c1ccc(C(O)CSC(=S)N2CCCCC2)cc1 (centres undefined) | 0.9 | / | / | 8 | /
Cc1ccc(N2CC(C(=O)Nc3nnc(SCC(=O)Nc4cc(C)on4)s3)CC2=O)cc1 (centres undefined) | 0.1 | 10% | -4 | 2 | -31
COc1cccc(C(=O)Nc2ccc(C(=O)c3ccncc3)cc2)c1 | 14 | / | / | 10 | /
CCn1c(SCC(=O)N2CCN(c3ccccc3)CC2)nnc1-c1ccncc1 | / | -8% | -8 | / | 40
Cc1ccc(C(=O)Nc2nccc(C)n2)cc1 | -2.3 | / | / | 0 | /
CN(C)c1ccc(/C=N/NC(=O)CN2CCN(c3ccc(F)cc3)CC2)cc1 | -3.3 | -1% | 0 | 12 | -25
Fc1c(F)c(F)c(CSc2nc3ccccc3[nH]2)c(F)c1F | / | -6% | -3 | 2 | -30
Cc1[nH]c(C)c(S(=O)(=O)N2CCN(c3cccc(Cl)c3)CC2)c1C(=O)N1CCCC1 | -0.3 | / | / | -2 | /
O=c1c2ccccc2cnn1Cc1n[nH]c(=S)n1-c1ccc(F)c(Cl)c1 | -3.8 | -8% | 4 | -15 | /
O=C(COC(=O)CNC(=O)C1CCCCC1)Nc1ccc2ccccc2c1 | 3.1 | 41% | 6 | -14 | -65
Clc1ccc(-c2nnc3n2CCCCC3)cc1 | 0.0 | -10% | 7 | -9 | -15
CCOCCCNC(=O)C1CCN(S(=O)(=O)N2CCCC2)CC1 | -2.4 | -2% | 7 | 3 | /
CN(/N=C/c1ccc(O)cc1O)c1ncc(C(F)(F)F)cc1Cl | 4.9 | 5% | / | 70 | /
Cc1cc(-c2ccccc2)n(-c2ccc(C(N)=O)cc2)n1 | 1.3 | -12% | -9 | 0 | -24
O=C(O)/C(=C\c1ccccc1)c1ccc2ccccc2c1 | 0.0 | / | / | -1 | /
Cc1cnc(C(=O)OCC(=O)Nc2cccc(S(=O)(=O)N3CCCCC3)c2)cn1 | 2.1 | 2% | 0 | 5 | -11
COc1ccc(-c2cc(C(=O)n3cnc4ccccc43)c3ccccc3n2)cc1 | 38* | 5% | 0 | 5 | 0
O=C(CN1CCN(CC(=O)c2ccc(F)cc2)CC1)Nc1ccccc1Cl | 2.6 | 7% | -5 | -7 | -47
COc1ccc(-c2cc(-c3nnc(COC(=O)CC4CC5CCC4C5)o3)c3ccccc3n2)cc1OC (centres undefined) | -48 | 13% | -6 | 7 | -2
O=C(CCc1nnc(Cc2c[nH]c3ccccc23)o1)NC(C1CC1)C1CC1 | 2.5 | 0% | 0 | -2 | /
Cn1nnnc1SCCNCc1ccccc1F | -0.5 | -4% | 9 | -9 | 0
CCOC(=O)N1CCC(Nc2ccc(N3C(=O)C4CCCCC4C3=O)cc2[N+](=O)[O-])CC1 (centres undefined) | 0.2 | 5% | -3 | -4 | /
COc1ccc(C(=O)NCCNc2ccc([N+](=O)[O-])cn2)cc1 | 1.1 | / | / | -4 | /
COc1ccc(Cc2nc3ccc(C(=O)NCC(C)(C)OC)cc3o2)cc1 | 3.1 | / | / | 3 | /

More entries
SMILES | RecA splice inh | Mtb growth | Arbovirus inh | Mtb bLac sens | YopH inh | others
O=C(NCC(=O)N1CCCCCCC1)c1ccc(Br)o1 | -10 | / | / | -11 | /
Cc1ccc(NC2=NCC(Cc3ccc(Br)cc3)S2)cc1 (centres undefined) | 8.1 | 45% | -4 | 100 | /
CCCCSc1nnc(-c2ccc(C)cc2)c2ccccc12 | 3.5 | 19% | -12 | 28 | -10
Cc1nc(CCNC(=O)Cc2ccccc2)cs1 | -5.1 | -5% | 2 | -19 | -28
Cc1cc(-c2ccco2)n(-c2ccccc2)n1 | 3.5 | 1% | 2 | -6 | -15
COc1cc2c(cc1OC)C(c1ccc(N(C)C)cc1)CC(=O)N2 (centres undefined) | -14 | -3% | 5 | -5 | -7
CCOC(=O)c1ccc(S(=O)(=O)N2CCC(N3CCCCC3)CC2)cc1 | -0.3 | / | / | ? | /
NC(=O)C1CCN(C(=O)Nc2csc3ccccc23)CC1 | 0.7 | -5% | / | -12 | /
CCOC(=O)CSc1nnc(Cc2ccccc2)n1CC1CCCO1 (centres undefined) | -3.8 | -1% | 2 | -3 | -38
CC(=O)c1cn(CCCCCCCn2cc(C(C)=O)c(=O)[nH]c2=O)c(=O)[nH]c1=O | / | -6% | 3 | 1 | -29
COc1ccc(N(C(=O)c2snc(C(N)=O)c2N)C(C(=O)NC2CCCCC2)c2ccc(C)o2)c(OC)c1 (centres undefined) | -0.4 | / | / | 1 | /
N#CC1=C(N)Oc2n[nH]c(CSc3ccccc3)c2C12C(=O)Nc1ccccc12 (centres undefined) | 5.6 | -4% | 4 | 4 | -19
O=C(NNC(=O)c1cccc(C(F)(F)F)c1)c1ccncc1 | 0.3 | / | / | 98 | /
Cc1nn(C)cc1C(=O)/C=C/c1ccc([N+](=O)[O-])cc1 | / | -2% | 3 | 47 | /

These rows are one share of the data (hit frequency here may not be typical).
